CSC inhib – blocks cancer stem cells. inhibition, % at 7.5 µM. hit rate 1.1% among 300,000. cancer stem cell-like cells viability, luminescence;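 active means mean at 75% or more and at least half the replicates too; inconclusive means mean and replicates disagree; tested in HMLE shEcad cells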;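 further: 0% = median of negative and 100% = median of positive control wells; the first replicate is given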
MT1-MMP act inh – inhibitors of human MT1-MMP activation; HT1080 RFP-PRO-GFP cells, GFP/RFP ratio fluorescence, overnight; percent of plate control window, DMSO zero; GFP/RFP ratio change, % at 20 µM; hit rate 0.061% among 360,000;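 active means GFP/RFP ratio change of at least 30% with cell ATP level not reduced by more than half and red fluorescence within 50% of control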; further: strong numbers were not always called active
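Material: RFP-PRO-GFP reporter HT1080 cells. Dosing: single-point 20 µM compound, 1% DMSO. Controls: DMSO and RFP-L50D-GFP cell wells. Timing: cells overnight before dosing, compound overnight, 37 °C, 5% CO2. Measure: GFP/RFP fluorescence ratio.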
HIV Env fusion – blocks HIV Env-driven cell-cell fusion; HeLa-JRFL Env/CEM21 cell fusion, luciferase; inhibition, % at 12.3 µM; hit rate 1.1% among 360,000;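 active means mean replicate inhibition score of at least 50 and every replicate individually at or above 50; inconclusive means only one of the two criteria met; inactive means mean below 50 and not all replicates reaching 50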;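 further: 0% = plate neutral controls and 100% = maraviroc near 300 nM; one replicate is shown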
PABP polyA inh – PABP-poly(A) binding inhibition; P11940; PABP-poly(A) RNA binding, fluorescence polarization; inhibition, % at 35 µM; hit rate 1% among 290,000; AID 2014;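 active means 50% or more with normal probe brightness, or confirmed in later tests; inconclusive means above 50% with abnormal brightness, or retests that disagree; inactive means below 50% or failed in later tests; about a fifth of its hits are not listed in these tables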;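 further: calls also rest on retests at 20 µM and on dose response follow-up; controls were probe without protein and protein plus probe with vehicle; some compounds called inactive have numbers as strong as hits; many hits fall short of the cut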
Yeast UUG start – alters start codon recognition fidelity in yeast; hit rate 0.13% among 350,000; S. cerevisiae UUG-firefly luciferase reporter, luminescence/redox ratio; activity score, % at 18.7 µM;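 active means replicate mean at a twofold rise or more, about +100% in these data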;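 further: firefly luciferase made from a UUG start codon reports start codon fidelity; reporter light over untreated wells divided by growth signal over untreated wells; some hits fall short of that in this replicate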
eIF4H FP inh – inhibitors of RNA binding by human eIF4H | eIF4H fluorescence polarization binding assay | inhibition, % at 35 µM | hit rate 0.94% among 290,000 | AID 2012;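 active means 50% or more with normal probe brightness, or confirmed in later tests; inconclusive means above 50% with abnormal brightness, or retests that disagree; inactive means below 50% or failed in later tests; about a fifth of its hits are not listed in these tables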;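 further: calls also rest on retests at 20 µM and on dose response follow-up; 0% = protein and probe with vehicle and 100% = probe without protein; strong numbers were not always called active; many hits fall short of the cut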
Rce1 inhib – blocks yeast Ras-converting enzyme. Q03530. yeast membranes, quenched prenylated peptide cleavage fluorescence. calls only. hit rate 0.27% among 290,000. AID 2563;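 active means fall in fluorescence gain of 50% or more versus controls, with final raw signal at or below 3038400; inconclusive means same 50% fall but final raw signal above 3038400; inactive means fall in fluorescence gain under 50%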;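 further: plate controls were neutral control wells for no effect and wells lacking membranes for full effect; tested at 10 µM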
Target sequence (Q03530 whole entry, looked up): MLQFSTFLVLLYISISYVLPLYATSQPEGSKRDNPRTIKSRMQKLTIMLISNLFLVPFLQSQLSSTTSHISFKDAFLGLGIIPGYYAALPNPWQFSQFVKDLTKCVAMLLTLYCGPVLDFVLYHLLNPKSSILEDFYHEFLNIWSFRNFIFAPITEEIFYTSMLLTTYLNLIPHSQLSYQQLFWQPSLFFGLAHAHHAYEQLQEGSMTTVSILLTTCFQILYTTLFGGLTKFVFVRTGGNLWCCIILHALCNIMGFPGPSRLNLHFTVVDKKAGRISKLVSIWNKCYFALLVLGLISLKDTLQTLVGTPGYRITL
eIF4H FP inh retest – second read-out of eIF4H FP inh, no call of its own (marks repeat the call); inhibition, %; compound at 20 µM; confirmation average;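 mean of two retest wells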
PABP polyA inh retest – also measured in PABP polyA inh; calls as there; inhibition, %; compound at 20 µM; confirmation repeats;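 mean of two retest wells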
MT1-MMP act inh RFP – further read-out of MT1-MMP act inh, marked with its call; RFP signal change, %; measured here: RFP expression control read;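 0 = vehicle wells; hits needed this value within 50% of zero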
Numbers without * were called inactive; i = inactive; ? = inconclusive; . = not tested or not shown; & = joins results of further samples.

SMILES | CSC inhib | MT1-MMP act inh | MT1-MMP act inh RFP | HIV Env fusion | PABP polyA inh | Yeast UUG start | eIF4H FP inh | Rce1 inhib | others
Cc1n[nH]c2ccccc2c1=O | . | 2 | 4 | -5 | . | -10 | . | .
Nc1nc(SCc2nc3sc4c(c3c(=O)[nH]2)CCCC4)n[nH]1 | -5 | -7 | -2 | . | -1 | -6 | -1 | i
Cc1ccc(NC(=O)c2ccc3c(c2)nnn3C)cc1 | . | 5 | 4 | -13 | -2 | . | -1 | i
O=C(CCNC(=O)c1ccco1)Nc1ccc(Cl)c(C(F)(F)F)c1 | -16 | 1 | 2 | 12 | -6 | -7 | 6 | i
COC(=O)c1cc(=O)nc2sc(-c3cccs3)nn12 | -11 | -1 | 5 | 3 | -2 | 1 | -3 | i
Cc1ccc(CSc2ccc3nnc(-c4ccccn4)n3n2)cc1 | -5 | 2 | 1 | -1 | -3 | . | 1 | i
COC(=O)c1ccc(/C=C2\SC(=S)N(CCCC(=O)NCCCN3CCOCC3)C2=O)cc1 | 15 | 5 | 4 | 4 | 2 | -23 | 9 | i
CC1CN(C(=O)COc2coc(CN3CCc4ccccc4C3)cc2=O)CC(C)O1 (centres undefined) | -16 | -4 | -2 | -26 | . | 2 | . | i
COc1cccc(NC(=O)C2(C)CCN2C(=O)CCC2CCCC2)c1 (centres undefined) | . | 2 | 1 | 5 | . | 0 | . | .
Cc1cc(C)n(-c2cc(N3CCN(C(=O)c4ccc(C(C)(C)C)cc4)CC3)ccc2[N+](=O)[O-])n1 | 22 | -10 | -12 | . | -8 | -14 | -7 | i
CCn1c(COc2ccccc2C)nnc1SCc1nc2ccccc2c(=O)[nH]1 | 2 | . | . | . | 8 | . | 5 | i
Cc1ccc(/C=N/NC(=O)c2ccoc2C)o1 | -18 | 1 | 1 | -21 | -3 | . | 11 | i
CC[C@H]1c2[nH]c3ccc(C(C)C)cc3c2[C@@H]2CCN3C(=O)CCC[C@H]1[C@H]23 | . | 2 | -5 | 15 | . | 2 | . | .
CC(=O)NC1C(=O)N(CCN2CCOCC2)c2ccc(F)cc21 (centres undefined) | -7 | -1 | 4 | -5 | 12 | . | -8 | i
COc1ccccc1C1CCN(c2ccc([N+](=O)[O-])cn2)CC1 | 15 | 7 | -13 | 12 | 3 | -11 | -12 | i
COc1ccc(-c2ccc(SCC(=O)N3CCOCC3)nn2)cc1 | 2 | 4 | 5 | . | -2 | -16 | 6 | i
C[C@@]12C(=O)Nc3ccc(F)cc3C(=O)N1[C@H]1c3cc(Cl)ccc3OC[C@@H]1[C@@H]2c1ccccc1 | 57 | -18 | -11 | 36 | . | -8 | . | .
O=C(Nc1ccccc1)c1ccccc1NC(=O)C(F)(F)F | 9 | 2 | -9 | . | 4 | -9 | 7 | i
Fc1ccc(NCc2nnc3n2CCCCC3)cc1 | 4 | -1 | 0 | 13 | 0 | . | -4 | i
COc1ccc(C2C(C(=O)N3CCOCC3)CCC(=O)N2c2cc(OC)c(OC)c(OC)c2)cc1 (centres undefined) | -11 | 2 | 5 | -36 | 0 | -17 | 10 | .
CC(C)C(NS(=O)(=O)c1cccs1)C(=O)NCCN1CCN(c2ccccc2)CC1 (centres undefined) | 24 | -3 | 4 | . | 1 | -14 | -4 | i
COc1ccc2cc(CN(CCc3ccccc3)Cc3nnnn3Cc3ccco3)c(=O)[nH]c2c1 | -10 | -8 | 6 | . | 37* | -17 | 55* | i | eIF4H FP inh retest=70*;PABP polyA inh retest=60*
C[C@@H]1CN([C@@H](C)CO)C(=O)CCCn2nncc2CO[C@@H]1CN(C)C(=O)Nc1ccc2c(c1)OCO2 | . | 2 | 5 | 0 | . | -12&-4 | . | .
CCCCOC(=O)c1ccc(OC(=O)N2CCOCC2)cc1 | -18 | -3 | -4 | 0 | -5 | -1 | 0 | i

Looked up by structure from the list above (2):
SMILES | CSC inhib | MT1-MMP act inh | MT1-MMP act inh RFP | HIV Env fusion | PABP polyA inh | Yeast UUG start | eIF4H FP inh | Rce1 inhib | others
O=C(Nc1ccccc1)c1ccccc1NC(=O)C(F)(F)F | 9 | 2 | -9 | . | 4 | -9 | 7 | i
CCCCOC(=O)c1ccc(OC(=O)N2CCOCC2)cc1 | -18 | -3 | -4 | 0 | -5 | -1 | 0 | i

Remaining list, next part
SMILES | CSC inhib | MT1-MMP act inh | MT1-MMP act inh RFP | HIV Env fusion | PABP polyA inh | Yeast UUG start | eIF4H FP inh | Rce1 inhib | others
Cc1ccc(C)c(/C=N/n2cc(-c3ccccc3)[nH]c2=S)c1 | 20 | -4 | -7 | -1 | 2 | . | -3 | i
CC1Cc2ccccc2N1C(=O)CSc1nc2ccccc2n1CC(=O)N1CCOCC1 (centres undefined) | -9 | 1 | 2 | -111 | 2 | -9 | 0 | i
Cc1ccc(CS(=O)(=O)CC(C)(O)c2ccccc2)cc1 (centres undefined) | -5 | -1 | 4 | -3 | -11 | -15 | -1 | i
CCOc1ccc(CN2CCN(Cc3cccn3-c3cccnc3)CC2CCO)cc1 (centres undefined) | -18 | 4 | 1 | -7 | 0 | . | 2 | i
CC(Oc1ccccc1)C(=O)OCC(=O)N1CC(=O)Nc2ccccc21 (centres undefined) | -5 | 2 | 3 | -6 | 7 | . | 0 | i
O=C1C(Cl)=C(N2CCCCC2)C(=O)N1c1ccccc1 | -11 | 4 | 3 | -35 | -11 | 14 | 0 | i
CC(C)(C)OC(=O)NCCCC[C@H](NC(=O)c1[nH]cnc1C(=O)Nc1ccc(Cl)cc1)C(=O)OC(C)(C)C | 7 | -14 | -21 | . | 0 | -20 | 16 | i
COc1cccc(-c2nn(C)c3sc(C(=O)NCc4ccccn4)cc23)c1 | -14 | 9 | -2 | . | -7 | -20 | -13 | i
Cc1cc(C)c(NC(=O)CN(C)CC(=O)N(C)CC(=O)Nc2c(Cl)cccc2Cl)c(C)c1 | . | 4 | 1 | 6 | . | -12 | . | .
Cc1ccsc1/C=C1/SC(=O)N(CC(=O)N2CCOCC2)C1=O | -6 | 5 | 5 | . | -11 | . | 2 | i
Cc1ccc(NC(=O)/C(=C\c2ccc3c(c2)OCO3)NC(=O)c2ccco2)cc1 | -13 | -1 | 2 | -67 | 4 | -25 | -1 | i
COc1cc(C2Nc3ccccc3NC3=C2C(=O)CC(C)(C)C3)cc(OC)c1OC (centres undefined) | -1 | 0 | -2 | -44 | 5 | -14 | 4 | i
Cc1cc(C)cc(NC(=S)/N=C(\N)Nc2nc(C)c3ccccc3n2)c1 | 1 | -3 | -13 | ? | -8 | . | -6 | i
CC(=O)N(C)c1ccc(NC(=S)NCC(C)C)cc1 | 5 | 0 | 3 | 3 | 7 | -17 | -4 | i
CCOC(=O)N1CCC2(CC1)CC(=O)c1cc(O)ccc1O2 | -1 | 2 | -1 | . | -2 | 9 | 2 | i
COC(=O)c1ccccc1NC(=O)c1ccc(Cn2cc(Cl)cn2)o1 | . | -6 | -4 | 7 | -4 | -11 | -3 | i
CN1C(=O)Nc2cccc3cccc1c23 | 6 | 3 | 5 | 33 | 7 | -3 | -1 | i
COc1ccc(NC(=O)Nc2cnccn2)cc1OC | 6 | -4 | 0 | 19 | 2 | -11 | -31 | i
CC(OC(=O)c1cc(O)c2ccccc2c1O)C(=O)Nc1ccc(C(N)=O)cc1 (centres undefined) | 21 | -5 | 13 | 11 | . | -34 | . | i
COc1ccc(C(C(=O)NC(C)(C)C)N(CC2CCCO2)C(=O)CCC(=O)Nc2cc(C)on2)cc1 (centres undefined) | 8 | 3 | 0 | -6 | -2 | -1 | -1 | i
COc1ccccc1NS(=O)(=O)c1cc(NC(=S)NCCN2CCOCC2)ccc1N1CCOCC1 | . | 2 | 1 | -89 | 5 | . | -3 | i
CSc1nncn1/N=C/c1ccccc1F | 13 | 6 | 5 | -162 | 9 | -12 | 5 | i
Cn1c(=O)oc2cc(S(=O)(=O)N3CCCC(C(=O)Nc4nccs4)C3)ccc21 (centres undefined) | -4 | -4 | -11 | 3 | 2 | -3 | 4 | i
Cc1nn(Cc2ccc([N+](=O)[O-])cc2)c(=O)n1-c1ccccc1Cl | -6 | -2 | -2 | 8 | 31 | . | -5 | i
COc1cc(OC)c(C(=O)NCc2cccnc2)cc1OC | -15 | 0 | -1 | -1 | -10 | -16 | -5 | i
CC1CCN(C(=O)c2ccc(S(=O)(=O)Cc3cc(F)ccc3F)c([N+](=O)[O-])c2)CC1 | 7 | -11 | -11 | 46 | -7 | . | -2 | i
CC(NC(=O)COC(=O)c1cccc(S(=O)(=O)N2CCCC2)c1)c1ccccc1 (centres undefined) | -5 | -2 | 4 | -4 | . | -26 | . | .
O=C(OCC(=O)N1CCN(C(=O)c2ccco2)CC1)c1ccccc1O | 0 | 0 | 2 | -2 | -4 | -3 | -1 | .
CC(C)(C)OC(=O)N(Cc1ccccc1)Cc1ccccc1OCc1cccc(NC(=O)c2ccccc2)c1 | . | -15 | -17 | -1 | . | -2 | . | .
Nn1c(Cc2cccc3ccccc23)nnc1SCCOc1ccc(Br)cc1 | 16 | 7 | -7 | 20 | 8 | . | 7 | i
O=C(Nc1ccc(F)cc1)c1cccnc1NCCc1ccccc1 | 14 | -7 | -4 | 13 | -2 | -7 | -6 | i
O=C(Nc1ccccc1-c1ccccc1)c1ccc(Br)o1 | 23 | -6 | -1 | 2 | -12 | -21 | -9 | i
C[C@@H]1NC(=O)c2cc([N+](=O)[O-])cc(I)c2OCC[C@@H](C(N)=O)NC(=O)[C@H](CCCCN)NC1=O | 8 | -1 | -1 | . | 16 | -3 | 0 | i
N#Cc1c(=O)c2nc(NCCCO)ncc2n2c(=O)c3ccccc3[nH]c12 | 16 | 7 | 5 | -18 | 35* | . | 78* | i | eIF4H FP inh retest=95*;PABP polyA inh retest=104*
CC(=O)c1ccc(-n2ccc(=O)cc2)cc1 | -8 | 2 | 3 | 11 | -4 | -13 | -4 | i
CCCN1C(=O)C(NC(=O)c2ccncc2)(C(F)(F)F)C2=C1CC(C)(C)CC2=O (centres undefined) | -7 | 3 | 3 | . | -5 | -15 | 4 | i
Cc1ccc2nc(NC(=O)c3cccc(-c4cc5ccccc5oc4=O)c3)sc2c1 | 99* | . | . | . | -1 | . | -5 | i
O=C(Nc1ccccc1Cl)c1ccc([N+](=O)[O-])o1 | 29 | 2 | 0 | 10 | -1 | -21 | 0 | i
Clc1cccc(Oc2ncccn2)c1 | -6 | 2 | 5 | -1 | 6 | . | -2 | i
Cc1ccc(N2CC(C(=O)OCc3ccc([N+](=O)[O-])cc3)CC2=O)cc1 (centres undefined) | -6 | 4 | 2 | . | -7 | -11 | 5 | i
O=C(O)C(c1ccccc1)C(c1ccccc1)c1ccccc1 (centres undefined) | -3 | -3 | -2 | -6 | -4 | 431* | 18 | i
COc1ccc(C2(C)NC(=O)N(CC(=O)Nc3ccc(S(=O)(=O)N4CCCC4)cc3)C2=O)cc1 (centres undefined) | -7 | -3 | -2 | 4 | 10 | . | -1 | i
CCSC1=C(C#N)C2(CCCCC2)C2=C(CC(C)(C)CC2=O)N1 | -5 | -1 | -2 | -1 | -2 | . | -8 | i
COc1cccc(C2C(C(=O)Nc3ccc(C)cc3C)=C(C)Nc3ncnn32)c1OC (centres undefined) | -15 | -2 | -6 | 10 | 8 | 1 | 5 | i

Screening results deposited in PubChem BioAssay by several laboratories.

Compounds were not picked by outcome (roughly 2.9% active in at least one column).
